Source: PubChem BioAssay
KCNQ2 pot: KCNQ2 (rat) channel potentiation; AID 2239; O88943; CHO-K1 KCNQ2, FluxOR thallium flux fluorescence; active compounds read high; actives 0.54% (n = 310,000); B-score at 10 µM;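 active = fluorescence ratio B-score at least 3 SD of library B-scores, with initial fluorescence B-score within 3 SD, cut at about 5.3 in these data; same plate scores as AID 2156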;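 note: B-score of peak minus minimum over baseline fluorescence ratio after K+ and Tl+ stimulus; positive B-score means potentiation of KCNQ2 with more thallium influx and brighter signal; only the inactives scoring about 0 or higher are listed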
Target sequence (O88943 whole entry, looked up): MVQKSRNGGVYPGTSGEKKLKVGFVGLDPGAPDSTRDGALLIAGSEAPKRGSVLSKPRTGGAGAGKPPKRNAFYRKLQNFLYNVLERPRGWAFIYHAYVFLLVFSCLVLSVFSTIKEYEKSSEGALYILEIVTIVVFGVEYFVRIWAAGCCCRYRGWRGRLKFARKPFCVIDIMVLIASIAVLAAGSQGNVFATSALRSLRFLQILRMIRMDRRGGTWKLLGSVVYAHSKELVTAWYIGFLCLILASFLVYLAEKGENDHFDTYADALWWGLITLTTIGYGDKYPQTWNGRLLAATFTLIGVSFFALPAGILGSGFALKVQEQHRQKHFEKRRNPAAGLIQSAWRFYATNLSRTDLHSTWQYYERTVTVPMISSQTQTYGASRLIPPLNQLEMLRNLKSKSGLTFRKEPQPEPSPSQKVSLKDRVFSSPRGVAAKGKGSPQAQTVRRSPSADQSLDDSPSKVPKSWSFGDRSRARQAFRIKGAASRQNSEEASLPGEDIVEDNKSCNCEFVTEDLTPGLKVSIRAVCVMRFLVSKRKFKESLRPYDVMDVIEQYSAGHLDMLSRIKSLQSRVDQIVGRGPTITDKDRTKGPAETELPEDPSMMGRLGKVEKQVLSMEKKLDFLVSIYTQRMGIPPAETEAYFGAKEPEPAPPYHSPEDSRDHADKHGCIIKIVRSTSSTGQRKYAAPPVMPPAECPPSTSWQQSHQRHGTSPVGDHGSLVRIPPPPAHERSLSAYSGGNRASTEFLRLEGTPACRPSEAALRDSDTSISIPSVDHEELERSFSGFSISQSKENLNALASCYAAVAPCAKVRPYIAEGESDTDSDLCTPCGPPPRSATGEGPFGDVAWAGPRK
KCNQ2 pot baseline: second read-out of KCNQ2 pot, no call of its own (marks repeat the call); B-score; compound at 10 µM; measured here: initial fluorescence intensity artifact check;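 brightness before thallium and not channel activity; 0 = typical well and far values either way flag optical interference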
* hit, by the source's call. These rows are one share of the data; the hit share may differ from the screen's.

A first look:
SMILES	KCNQ2 pot	KCNQ2 pot baseline
CCOC(=O)c1cnc(-n2nc(C)cc2C)nc1Nc1cccc(C(C)=O)c1	0.17	-0.13
O=C(O)CSc1cc(NS(=O)(=O)c2cccc([N+](=O)[O-])c2)c2ccccc2c1O	1.9	0.02
CCCC1(C(=O)OCC)NC(c2ccc(O)cc2)C2C(=O)N(c3cccc(C(C)=O)c3)C(=O)C21 (stereo unspecified)	0.04	0
CCCCCc1nnc(NC(=O)C2=COCCO2)s1	1.6	1.8
COc1cccc(NC(=O)Nc2nnc(N3CCCCC3C)s2)c1 (stereo unspecified)	0.27	0.88

Main list, previewed entries included:
SMILES	KCNQ2 pot	KCNQ2 pot baseline
CCOC(=O)c1cnc(-n2nc(C)cc2C)nc1Nc1cccc(C(C)=O)c1	0.17	-0.13
O=C(O)CSc1cc(NS(=O)(=O)c2cccc([N+](=O)[O-])c2)c2ccccc2c1O	1.9	0.02
CCCC1(C(=O)OCC)NC(c2ccc(O)cc2)C2C(=O)N(c3cccc(C(C)=O)c3)C(=O)C21 (stereo unspecified)	0.04	0
CCCCCc1nnc(NC(=O)C2=COCCO2)s1	1.6	1.8
COc1cccc(NC(=O)Nc2nnc(N3CCCCC3C)s2)c1 (stereo unspecified)	0.27	0.88
CCCc1cc(=O)[nH]c(SCC(=O)N2CCCc3ccccc32)n1	0.02	-0.81
c1ccc2c(c1)nc(N1CCOCC1)c1ccccc12	1.6	2.2
CC1CCc2c(nc3nc[nH]n3c2=O)C1 (stereo unspecified)	0.2	0.07
Cc1ccc(COc2ccc3c(c2)OCO3)cc1	0.12	-0.76
CC(C)(C)c1ccc(C(=O)/C=C2\NC(=O)CS2)cc1	2	-0.57
COc1cc(C(C(=O)NC2CCCC2)N(C(=O)c2snc(C(N)=O)c2N)c2ccccc2)cc(OC)c1OC (stereo unspecified)	0.81	-0.78
CCn1nc(C)cc1C(=O)N1CCCC(C(=O)c2cccc(OC)c2)C1 (stereo unspecified)	0.98	-0.91
CCCCOc1ncnc2c1[nH]c1ccc(OC)cc12	0.48	-2
CS(=O)(=O)N(CC(=O)Nc1ccc2c(c1)OCCO2)c1ccc2c(c1)OCO2	0.98	0.37
C=CCc1c(C)nc(SCc2ccccc2)[nH]c1=O	0.7	-0.35
O=C(Nc1cc(Cl)ccc1Cl)C1CC(=O)N(c2ccc(Br)cc2)C1 (stereo unspecified)	0.24	2.1
CCN(CC(=O)Nc1c(F)cccc1F)C(=O)c1ccc(N2CCOCC2)c([N+](=O)[O-])c1	0.74	0.22
CC1(C)OC(=CC=Nc2ccc(Cl)cc2)OC1(C)C	0.67	-1.6
C=CCC1(/C=N/O)CCOC(C)(C)C1 (stereo unspecified)	1.5	0.38
CCO[C@H]1OC(C(=O)O)=C[C@@H](c2csc3ccccc23)[C@@H]1CCCO	0.01	-0.02
O=C(COc1ccc(Cl)cc1Br)NC(=O)NCc1ccccc1	0.76	-0.47
O=C(NCCC1=CCCCC1)c1ccc(Cl)cc1	0.15	-1.1
CCN1N=C(c2ccccc2)Cn2c1nc1ccccc12	1.3	-2.6
Cc1ccc(S(=O)(=O)N(C)C)cc1NC(=O)COC(=O)CC1CCCC1	0.68	-0.85
Cc1ccc(N2CC(C(=O)Nc3nnc(SCCN4CCOCC4)s3)CC2=O)cc1C (stereo unspecified)	0.56	-0.34
N#CCSc1nnc(Cc2ccc3c(c2)OCO3)o1	0.32	0.05
COc1cccc(Nc2ncnc3onc(-c4ccccc4OC)c23)c1	0.47	0.83
Cc1nc(SCC(=O)NCCc2ccccc2)nc(C)c1C	0.27	0.68
Cc1ccc(S(=O)(=O)N2CCCCC2)cc1NC(=O)COC(=O)c1ccccc1F	0.39	-0.6
CC(=O)c1cccc(NC(=O)c2cccc(S(=O)(=O)N(C)C)c2)c1	0.13	-0.48
CN(C)S(=O)(=O)N1CCC(n2nccc2NC(=O)CCCc2ccccc2)CC1	0.8	-0.74
O=C(Nc1ccccc1-c1nnc(SCc2ccc(Cl)cc2)o1)c1ccccc1	0.14	-2.2
CCS(=O)(=O)c1nc(S(=O)(=O)c2ccc(C)cc2)c(NCCCN(C)C)s1	0.6	-0.8
COc1ccc(NC(=O)N2CCN(c3nc4ccccc4n3C(C)C)CC2)cc1	1.7	-1.3
Cc1onc(-c2ccccc2Cl)c1C(=O)NCc1ccc2c(c1)cc(C)n2C	0.3	2.1
CC(C)CNC(=S)N1CCC(C(=O)c2ccc3c(c2)OCCO3)CC1	0.96	0.42
Cc1nn(C)cc1C(C(=O)NC1CCCCC1)N(C(=O)Cc1cccs1)c1ccc(Cl)cc1 (stereo unspecified)	1.3	-1.3
Cn1c(=O)oc2cc(S(=O)(=O)Nc3cccc(F)c3)ccc21	0.82	-1.4
CCc1ccc(-n2cnc3cc(C(=O)NCC(OC)OC)ccc32)cc1	1.2	-0.18
Cc1cc(=O)[nH]c(N/N=C/c2cccc(Br)c2)n1	0.59	0.98
NNC(=O)c1oc2nc(-c3ccccc3)cc(-c3ccccc3)c2c1N	0.04	-0.24
COc1ccc(NC(=O)CN(C)CC(=O)Nc2ccc(Cl)cc2[N+](=O)[O-])cc1	0.27	0.39
CN(C)S(=O)(=O)c1ccc(N2CCCC2)c(C(=O)Nc2ccccc2)c1	0.05	-0.82
CCn1c(SCC(=O)N/N=C/C=C/c2ccccc2[N+](=O)[O-])nnc1-c1ccccc1	0.95	0.38
COc1ccc(CC(=O)OCC(=O)N2CCCc3ccccc32)cc1OC	2.4	-0.57
CCCn1cc(S(=O)(=O)CC(=O)NC2CCCCC2)c2ccccc21	0.97	-3
COc1ccc(Nc2nc(N)c([N+](=O)[O-])c(NC3CCCCC3)n2)cc1	2.9	0.88
NC(=O)c1ccc(OCC2CCCO2)cc1 (stereo unspecified)	0.4	-1.2
CCOC(=O)c1cnc(SC)nc1NCCOC	1.7	-0.36
O=C(CSc1nnc(-c2ccc(OC(F)F)cc2)o1)NCc1cccs1	0.03	1.9
COc1ccc(-n2nc(C(=O)NCC(=O)NCc3ccco3)c3ccccc3c2=O)cc1Cl	0.97	-0.75
Cc1ccc(NC2SC(=O)N(Cc3cccc(C(=O)O)c3)C2=O)cc1 (stereo unspecified)	0.35	0.5
CCOc1cc(C(=O)Nc2ncccn2)cc(OCC)c1OCC	0.58	-0.81
O=C1CC(NC(=O)C(F)(F)F)=NN1c1ccccc1	2	0.89
CCCNc1c(NS(=O)(=O)c2ccc(C)c(C)c2)c(=O)oc2ccccc12	1.4	0.64
Cc1cc(NC(=O)c2c([N+](=O)[O-])cnn2C)no1	2.6	2.4
Cc1ccc(NC(=S)N2CCCC(CO)C2)c(C)c1 (stereo unspecified)	1.5	-1.2
O=C(Nc1ccccn1)C12CC3CC(CC(C3)C1)C2	0.8	-0.97
CS(=O)(=O)N(CC(=O)Nc1ccccc1C(=O)N1CCOCC1)c1ccc(F)c(Cl)c1	0.28	-0.57
Cc1ccc(-c2nnc(SCC(=O)n3c4c(c5ccccc53)CCCC4)o2)cc1	0.59	1.2

Filtered by structure, the compounds so far with a COOH group
SMILES	KCNQ2 pot	KCNQ2 pot baseline
O=C(O)CSc1cc(NS(=O)(=O)c2cccc([N+](=O)[O-])c2)c2ccccc2c1O	1.9	0.02
CCO[C@H]1OC(C(=O)O)=C[C@@H](c2csc3ccccc23)[C@@H]1CCCO	0.01	-0.02
Cc1ccc(NC2SC(=O)N(Cc3cccc(C(=O)O)c3)C2=O)cc1 (stereo unspecified)	0.35	0.5

The list goes on:
SMILES	KCNQ2 pot	KCNQ2 pot baseline
CC1CC(C)CN(C(=O)CCCn2c(=S)[nH]c3ccccc3c2=O)C1 (stereo unspecified)	0.04	0.53
Cc1nc(-c2ccncc2)sc1C(=O)Nc1ccc(Cl)cc1	1.6	-0.66
CC(C)=CCC/C(C)=C/C=N/NC(=O)c1cccc([N+](=O)[O-])c1	0.2	-0.07
CCOc1ccc(Br)cc1S(=O)(=O)Nc1ccc(C(=O)OCC(=O)N(C)c2ccccc2)cc1	0.26	-0.08
Cc1nn(CC(=O)Nc2ccc(Br)cc2F)c(=O)c2cccn12	1.4	-0.77
N#Cc1ccsc1NC(=O)CN1CCN(Cc2ccccc2)CC1	0.83	1.7
CSc1ccc(C2(O)Cc3cccc[n+]3C2c2ccccc2)cc1 (stereo unspecified)	0.79	1.1
Cc1ccc(NC(=O)N2CCC(O)(c3cccnc3)CC2)cc1	0.98	0.44
COc1ccc(-c2nnc(SCC(=O)O)n2C)cc1OC	1	1.4
COc1ccc(C2CC3(CC(C)(C)NC(=O)N3)Oc3cc(O)ccc32)cc1 (stereo unspecified)	0.44	0.93
COc1cc(/C=C/C(=O)c2ccc(O)cc2)ccc1OCC#N	0.73	-1.9
COc1ccc(NC(=O)c2ccc3ncsc3c2)cc1	0.02	-0.73
Cc1cc(OCC(=O)NNC(=O)c2cnccn2)cc(C)c1Cl	2.4	-0.16
O=C(NC1CCS(=O)(=O)C1)c1cccc(Br)c1 (stereo unspecified)	0.44	-0.5
Cc1ccc2nc(Nc3nc(CSc4nnnn4-c4ccccc4)cc(=O)[nH]3)nc(C)c2c1	0.32	2.2
CCC(C(=O)Nc1ccccc1C(=O)N1CCCC1)N1C(=O)c2ccccc2C1=O (stereo unspecified)	0.38	0.51
Cc1cccc(NC(=O)C2c3ccccc3Oc3ccccc32)n1	0.23	-1.8
O=C(O)CC1(CC(=O)Nc2ccc(F)cc2F)CCCCC1	0.21	0.65
COc1ccc(NC(=O)COc2nc(N(C)C)nc(N(C)C)n2)cc1	2.2	-1.2
COCCSc1ccccc1C(=O)NCC1CCCO1 (stereo unspecified)	0.37	0.53

Exported as labelled records: two of the compounds above
O=C(O)CC1(CC(=O)Nc2ccc(F)cc2F)CCCCC1
  KCNQ2 pot: 0.21
  KCNQ2 pot baseline: 0.65
COc1ccc(NC(=O)COc2nc(N(C)C)nc(N(C)C)n2)cc1
  KCNQ2 pot: 2.2
  KCNQ2 pot baseline: -1.2

Going on with the list:
SMILES	KCNQ2 pot	KCNQ2 pot baseline
CN(C)C=NC(=O)/C(C#N)=C1\CCc2ccccc2N1	1.5	0.55
CCNC(=S)NNC(=S)NCc1ccccc1	0.44	0.01
O=C(NCCc1ccc(F)cc1)C(=O)NCC1CCCN1S(=O)(=O)c1cccs1 (stereo unspecified)	0.8	1.7
Cc1ccc(NS(=O)(=O)c2ccc(F)cc2)nc1	0.16	-0.26
CCOC(=O)c1ccc(NC(=O)Nc2c(C)nn(C)c2C)cc1	1.4	-0.37
COc1c(C)cccc1C(=O)Nc1cc(-c2nn3c(C)nnc3s2)ccc1C	1.6	-0.11
O=C(/C=C/Nc1ccc(S(=O)(=O)Nc2cnc3ccccc3n2)cc1)c1cccnc1	2	-0.67
COc1ccc(NC(=S)N2CCC(C(=O)c3ccc(OC)cc3)CC2)cc1	1.2	-0.9
CN[C@H]1CCc2cc(OC)c(OC)c(OC)c2-c2ccc(N(C)CC(OC)OC)c(=O)cc21	0.64	-1.4
Cc1ccc(-n2c(N)cc(=O)nc2SCC(=O)N2CCN(c3ccccc3)CC2)cc1C	0.51	0.61
CC(=O)Oc1ccc(Oc2ccc(-c3noc(C)n3)cc2)cc1	0.41	-1.7
CC(=O)c1cccc(NC(=O)C(C)OC(=O)CCCN=C2NS(=O)(=O)c3ccccc32)c1 (stereo unspecified)	0.04	0.39
O=C(COc1ccccc1)NCC(=O)N/N=C/c1cccs1	1.9	-0.61
C[Si](C)(C)n1ccnc1	0.67	0.32
Cc1c(/C=N/n2cnnc2)c2ccccc2n1CCOc1ccc(Cl)cc1	2.2	0.17
CCC(C)Sc1cc(-c2nc3ccccn3c2NC2CCCCC2)ccc1OC (stereo unspecified)	0.01	0.29
Cc1c(/C(Cc2ccccc2)=N/O)c2ccccc2n1C	0.3	0.32
CCOc1ccc(NC(=O)N(C2CCCCC2)C(C)c2ccncc2)cc1 (stereo unspecified)	0.05	0.79
COc1ccc(N2CCN(CC(=O)Nc3ccc(-n4cnnn4)cc3)CC2)cc1	0.28	0.25
O=[N+]([O-])c1ccc(CN2CCN(c3ccccc3)CC2)o1	0.03	-1.6
CCOC(=O)c1sc(=NC(=O)CCSc2ccccc2)n(C)c1C	0.24	0.02
COc1ccc(/C(O)=C2\C(=O)C(=O)N(c3cc(C)on3)C2c2cccc(OC)c2OC)cc1C (stereo unspecified)	0.65	-0.53
CCCNC(=O)c1onc(CSc2ccc(F)cc2)c1C(=O)NCCC	0.74	-0.06
CCOCCCNC(=O)c1c[nH]c2c(CC)cccc2c1=O	0.34	0.8
COc1ccc2nc(-n3c(C)ccc3C)sc2c1	0.47	1.6
COc1ccccc1NC(=O)C(=O)N/N=C(\C)CC(=O)Nc1ccccn1	0.34	0
Cc1ccc(CNC(=O)C2CCCN(c3nc4ccccc4o3)C2)cc1 (stereo unspecified)	0.34	0
CNCCOc1ccccc1-c1ccccc1	0.79	-1.1
Cn1c(=O)[nH]c(=O)c2c1nc(Sc1ccccc1)n2CCc1ccccc1	0.13	-0.16
Cc1ccc(OCC(=O)N2CCN(C(=O)CCC3CCCC3)CC2)cc1	1.1	0.14
O=C(O)Cn1cnc2scc(-c3cccs3)c2c1=O	0.95	0.23
CCN(CC)S(=O)(=O)c1ccc(C(=O)Nc2nnc(C(C)C)s2)cc1	0.55	-0.55
Cc1ccccc1-c1nc(-c2ccc(NC(=O)c3ccc4c(c3)OCO4)cc2)no1	1.4	1.4
CCN(C(=O)COC(=O)COc1ccc2c(C)cc(=O)oc2c1)C1CCS(=O)(=O)C1 (stereo unspecified)	1.2	-1.9
CC(Oc1ccccc1)c1ccnc(N)n1 (stereo unspecified)	0.34	-2
CCc1ccccc1N(CC(=O)N1CCN(c2ccc(F)cc2)CC1)S(C)(=O)=O	0.89	0.67
Cc1ccc(C(C)(C)C)cc1S(=O)(=O)Nc1cccc(S(=O)(=O)NC2=NCCC2)c1	0.22	0.4
O=C(Nc1ccccc1C(=O)O)c1cccc(F)c1	1.3	-1.4
